High-throughput results: PubChem, ICCB-Longwood Screening Facility, Harvard Medical School
HCMV UL50-53 inh = inhibitors of HCMV UL50-UL53 interaction, biochemical, HTRF; 190,000 tested, 0.15% active; HCMV UL50-UL53 nuclear egress complex (human cytomegalovirus); normalized percent inhibition; AID 1918969, 2023; inhibition, % (no concentration beside the values);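 active = both replicates at 50% or more, plus weaker picks with an unusually low signal ratio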;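 also: stock transfer was 100 nL into about 20 µL; 0% = negative control wells and 100% = wells with untagged competitor protein; inactives centre near -12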
Sa growth inh = S. aureus growth inhibition at 42 and 30 °C, primary screen, LtaS inhibitor project, RN4220, two temperatures; OD600, 20 h, 42 °C; stronger effect = lower value; relative growth, % (concentration not given with the values); 170,000 tested, 0.53% active;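 active = growth at 42 °C up to 50% and 20 or more points under that at 30 °C, or under 10% at both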;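 also: 300 nL library stock went into each well; scaled to the means of positive and negative controls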
GIV Gai3 FP = inhibitors of GIV peptide binding to Galpha-i3, primary screen, biochemical, fluorescence polarization, FITC-GIV GBA peptide, rat Galphai3. Guanine nucleotide-binding protein G(i) subunit alpha-3 (Rattus norvegicus), P08753. 90 min; stronger effect = lower value; scaled: aluminum fluoride 0%, vehicle 100%. percent of control (FP), % (concentration not given with the values). 210,000 tested, 0.42% active;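 active = replicate mean at 85% of control or lower, very high polarization wells dropped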;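 also: wells of about 15 µL received 100 nL stock; the first replicate is given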
Target sequence (P08753 whole entry, looked up): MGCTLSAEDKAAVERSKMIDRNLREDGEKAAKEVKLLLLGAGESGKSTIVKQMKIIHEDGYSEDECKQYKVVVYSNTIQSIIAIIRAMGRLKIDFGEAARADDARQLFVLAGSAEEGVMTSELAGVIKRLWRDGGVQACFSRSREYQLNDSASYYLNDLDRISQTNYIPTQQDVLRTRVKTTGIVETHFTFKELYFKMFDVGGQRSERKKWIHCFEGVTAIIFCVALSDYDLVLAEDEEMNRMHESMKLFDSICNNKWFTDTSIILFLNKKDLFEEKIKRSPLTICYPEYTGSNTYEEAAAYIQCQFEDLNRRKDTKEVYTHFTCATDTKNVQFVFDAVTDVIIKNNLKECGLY
Sa growth inh second temp = further read-out of Sa growth inh, marked with its call; relative growth, %; measured here: growth at 30 °C;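 optical density after 20 h as mean of two plates; 100% = untreated growth and lower means inhibition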
An asterisk follows results filed as active; / = no result given; & = joins results of further samples.

no.	canonical_smiles	Sa growth inh second temp	Sa growth inh
1	O=C1CC(=O)CC(c2cccc(C(F)(F)F)c2)C1	67	132
2	Fc1cccc(CSc2nnc3n2CCN3c2ccccc2)c1	/	/
3	Cc1ccc(C(=O)Oc2ccc(/C=N/NC(N)=O)cc2)cc1	110	121
4	CCN1CCN(Cc2c(O)ccc3c(=O)c(-c4ccccc4Cl)coc23)CC1	79	88
5	CCN1CN(Cc2ccccc2)CNC1=S	92	96
6	CCc1ccc(NC(=O)CS(=O)(=O)c2ccc(Cl)cc2)cc1	89	123
7	COc1ccccc1C1CC(c2ccc(C)cc2)=NN1C(=O)CCC(=O)O (configuration not stated)	/	/
8	CC(CCc1ccccc1)NC(=O)Cn1c(=O)nc(-c2ccccc2F)c2cc(Cl)ccc21 (configuration not stated)	88	102
9	Cc1ccc(S(=O)(=O)/N=C(\N)Nc2nc3ccccc3o2)cc1	105	131
10	Cc1ccc(C(=O)/C=C/c2cn(CC(O)CN3CCc4ccccc43)c3ccccc23)cc1 (configuration not stated)	76	114
11	Cc1cc(-c2nc3ncccc3o2)ccc1NC(=O)c1ccccc1	96	112
12	O=C(N/N=C/C1=C(Sc2nc3ccccc3o2)CCCC1)c1ccncc1	87	73

no.	GIV Gai3 FP	HCMV UL50-53 inh
1	101	-3
2	96	-30
3	106	-19
4	104	-10
5	/	2
6	/	-22
7	110	-23
8	103	/
9	102	-10
10	105	-16
11	108	-29
12	/	-32

Next section.
no.	canonical_smiles	Sa growth inh second temp	Sa growth inh
13	Cc1cc(C)c2c(c1)c(-c1ccccc1)c(-c1ccccc1)n2CC(O)CN1C(=O)c2ccccc2S1(=O)=O (configuration not stated)	/	/
14	Cc1c(-c2nnc(SCC(=O)Nc3ccc(Br)cc3)o2)nnn1-c1ccc(F)cc1	86	102
15	Cc1nc2c(C)cccn2c1C(Nc1ccc(F)cc1)c1ccccc1 (configuration not stated)	85	91
16	COC(=O)c1c[nH]c(=S)n1C	95	109
17	Oc1c(/C=N/N2CCCCC2)sc2ccccc12	/	/
18	COc1ccc(-c2cn3nc(SCC(=O)Nc4cccc(C)c4C)ccc3n2)cc1	93	94
19	C=CCN(Cc1nc(-c2ccc(C)cc2)no1)C(=O)C1CCCCC1	87	105
20	CCCN1CCN(c2cc3c(cc2F)c(=O)c(S(=O)(=O)c2ccc(CC)cc2)cn3CC)CC1	103	108
21	CC(=O)Nc1c(C(=O)N2CCN(C(=O)c3ccco3)CC2)oc2ccccc12	99	92
22	CCc1ccc(NC(=O)C(NS(=O)(=O)c2cccs2)C(C)C)cc1 (configuration not stated)	90	101
23	Cc1ccc(SC(C)C(=O)NCc2ccncc2)cc1 (configuration not stated)	89	91
24	Cc1nc2scc(-c3ccccc3)c2c(=O)n1/N=C/N(C)C	82	76

no.	GIV Gai3 FP	HCMV UL50-53 inh
13	103	-22
14	104	/
15	97	/
16	106	10
17	114	-64
18	111	/
19	98	-11
20	103	/
21	107	0
22	105	6
23	/	-18
24	/	-7

New compounds follow.
no.	canonical_smiles	Sa growth inh second temp	Sa growth inh
25	O=C(Oc1ccccc1)c1csc(C2COc3ccccc3O2)n1 (configuration not stated)	90	97
26	Cc1cc(-c2csc(-c3cccnc3)n2)c(C)n1C	69	101
27	COc1ccc(-c2nc3ccccc3n3c(-c4ccc(OC)cc4)c4c(=O)n(C)c(=O)n(C)c4c23)cc1	87	97
28	N#Cc1ccccc1CSc1nnc(-c2ccccc2)o1	84	84
29	CCOC(=O)c1cc(-c2ccccc2)n(CC(=O)NC(C)(C)C)c1C	98	97
30	COc1cccc(CN(C)C(=O)C2CC(=O)N(CCc3ccccc3)C2)c1 (configuration not stated)	90	122
31	COc1ccc(N2C(=O)/C(=C/c3ccc(OCC(=O)O)c(OC)c3)C(=O)NC2=S)cc1	/	/
32	COc1cc(C2C(C(=O)OCCOc3ccccc3)=C(C)NC3=C2C(=O)CC(c2ccccc2)C3)ccc1O (configuration not stated)	/	/
33	COc1ccccc1NC(=O)Cn1c(=O)c(CNc2ccc(C)cc2)cc2cc3c(cc21)OCCO3	88	74
34	O=C(Nc1nnc(COc2ccc(Cl)cc2)s1)c1cccc(S(=O)(=O)N2CCOCC2)c1	/	/
35	N/N=C(/C(=N/N)c1ccccc1)c1ccccc1	95	97
36	COc1ccc(Cn2ccn(Cc3ccccc3)c(=O)c2=O)cc1	86	87

no.	GIV Gai3 FP	HCMV UL50-53 inh
25	105	0
26	/	-16
27	101	-46
28	99	-15
29	103	12
30	/	-17
31	102	-24
32	101	-23
33	101	/
34	102	4
35	/	-14
36	96	/

Part of the list above in a different format.
Sequence of screens – Sa growth inh second temp, Sa growth inh, GIV Gai3 FP, HCMV UL50-53 inh
29. CCOC(=O)c1cc(-c2ccccc2)n(CC(=O)NC(C)(C)C)c1C
 : 98, 97, 103, 12
30. COc1cccc(CN(C)C(=O)C2CC(=O)N(CCc3ccccc3)C2)c1 (configuration not stated)
 : 90, 122, /, -17
31. COc1ccc(N2C(=O)/C(=C/c3ccc(OCC(=O)O)c(OC)c3)C(=O)NC2=S)cc1
 : /, /, 102, -24

Single records, as listed above. Order of values: Sa growth inh second temp | Sa growth inh | GIV Gai3 FP | HCMV UL50-53 inh
Profile of N/N=C(/C(=N/N)c1ccccc1)c1ccccc1 → 95 | 97 | / | -14
Profile of N#Cc1ccccc1CSc1nnc(-c2ccccc2)o1 → 84 | 84 | 99 | -15
Profile of O=C(Oc1ccccc1)c1csc(C2COc3ccccc3O2)n1 (configuration not stated) → 90 | 97 | 105 | 0
Profile of COc1ccc(-c2nc3ccccc3n3c(-c4ccc(OC)cc4)c4c(=O)n(C)c(=O)n(C)c4c23)cc1 → 87 | 97 | 101 | -46

Next section.
no.	canonical_smiles	Sa growth inh second temp	Sa growth inh
37	O=C(CN1CCCCCCC1)Nc1ccc2c(c1)OCO2	91	120
38	Cc1ccc(NC(=O)Cn2cc3c(n2)CCCC3)cc1Cl	86	101
39	OC(CSc1nc(-c2ccccc2)ns1)C(F)(F)F (configuration not stated)	77	86
40	CC(C)(C)C(O)CN1CCCC1 (configuration not stated)	92	133
41	CCOc1ccc(C(=O)Nc2c(C(=O)c3ccccc3)oc3ccccc23)cc1	89	77
42	CCC(CC)c1nn2cc(-c3ccc(C)c(C)c3)nc2s1	88	88
43	On1c2c(c3c4nonc4ccc31)CCCC2	1	1
44	COc1ccc(C)cc1-n1nnnc1SC(C)C(=O)NCc1ccco1 (configuration not stated)	104	101
45	CCOC(=O)c1c(C)[nH]c(C(=O)COc2ccccc2OCC)c1C	91	107
46	COc1ccc2oc(=O)c(C(=O)OCCN3CCN(S(=O)(=O)c4ccccc4)CC3)cc2c1	89	77
47	N#CCCSc1nnc(-c2ccc(Cl)cc2)o1	95	100
48	COc1ccccc1-c1ccnc2c(-c3ccc(Br)cc3)c(C)nn12	85	92

no.	GIV Gai3 FP	HCMV UL50-53 inh
37	102	-14
38	99	-27
39	107	-20
40	103	-3
41	106	-28
42	106	-19
43	50*	56
44	/	1
45	/	-2
46	98	-3
47	/	-16
48	106&97	-11&-25

In the list so far, three contain a furan ring, fused or not.
no.	canonical_smiles	Sa growth inh second temp	Sa growth inh
21	CC(=O)Nc1c(C(=O)N2CCN(C(=O)c3ccco3)CC2)oc2ccccc12	99	92
41	CCOc1ccc(C(=O)Nc2c(C(=O)c3ccccc3)oc3ccccc23)cc1	89	77
44	COc1ccc(C)cc1-n1nnnc1SC(C)C(=O)NCc1ccco1 (configuration not stated)	104	101

no.	GIV Gai3 FP	HCMV UL50-53 inh
21	107	0
41	106	-28
44	/	1

Part of the list above, set out differently:
(45) CCOC(=O)c1c(C)[nH]c(C(=O)COc2ccccc2OCC)c1C
(42) CCC(CC)c1nn2cc(-c3ccc(C)c(C)c3)nc2s1
Compound	45	42
Sa growth inh second temp	91	88
Sa growth inh	107	88
GIV Gai3 FP	/	106
HCMV UL50-53 inh	-2	-19

New compounds follow.
no.	canonical_smiles	Sa growth inh second temp	Sa growth inh
49	NC(=S)N=Nc1c(O)[nH]c2ccccc12	91	127
50	Cc1ccc2nc(-c3ccc(NC(=O)c4sc5ccccc5c4Cl)cc3)sc2c1	/	/
51	O=C(C1CCCCC1)N(Cc1cccnc1)c1nc2c(F)cccc2s1	39	70
52	CCCC(=O)OCc1cnc(C)c2oc(=O)c(C(=O)Nc3ccccc3OC)cc12	/	/
53	CCOC(=O)CNC(=O)N1[C@H](c2cccs2)[C@@H](C)C(=O)[C@@H](C)[C@@H]1c1cccs1	87	80
54	CNCCNS(=O)(=O)c1ccc(N2C(=O)CC3(CCCC3)C2=O)c(Cl)c1	91	95
55	O=C(c1cccs1)N1N=C(c2ccccc2)CC1c1ccccc1Cl (configuration not stated)	/	/
56	COc1ccc2cc3cc(C(=O)N(C)c4cccc(C(F)(F)F)c4)oc3nc2c1	90	109
57	COC(=O)c1cc(S(=O)(=O)Nc2ccc(C(C)C)cc2)c[nH]1	85	104
58	CCOC(=O)c1ccccc1NC(=O)c1c(-c2ccccc2)noc1C	87	82
59	Cc1ccc2c(c1)C(O)(C(=O)NC(N)=O)C(=O)N2 (configuration not stated)	118	94
60	CCn1c(=O)c(=O)[nH]c2c(=O)oc3ccc(S(=O)(=O)Nc4ccc(OC)cc4)cc3c21	90	92

no.	GIV Gai3 FP	HCMV UL50-53 inh
49	105	-98
50	104	-22
51	103	/
52	102	-27
53	95	-10
54	109	-43
55	104	-20
56	106	/
57	100	6
58	97	/
59	102	-18
60	100	-60

(list continues)
no.	canonical_smiles	Sa growth inh second temp	Sa growth inh
61	O=C(CCc1nc(CN2CCN(S(=O)(=O)c3ccc(F)cc3)CC2)no1)N1CCCCC1	92	113
62	O=C(COc1ccc2c3c(c(=O)oc2c1)CCCC3)Nc1cccc(Br)c1	88	93
63	COc1ccc(-c2nnc(SCC(=O)Nc3cc(C)ccn3)n2-c2ccccc2)cc1	/	/
64	COc1nc(Oc2ccc(/C=N/O)cc2)nc(N(C)C)n1	88	88
65	CCC1CCCCN1CC(O)COCc1cccc(OC)c1 (configuration not stated)	93	94
66	CCOC(=O)c1cccc(Nc2ncnc3ccccc23)c1	85	99
67	NC(=O)c1cnn(Cc2ccccc2)c1N	90	87
68	CCOc1ccc(NC2=CC(=O)C=CC2=O)cc1	85	85
69	COCCCNC(=O)c1cnc2c(-c3ccc(F)cc3)c(C)nn2c1C	100	96
70	O=C(CCC(=O)N1CCc2cc(S(=O)(=O)NCc3ccc4c(c3)OCO4)ccc21)N1CCCC1	/	/
71	O=C(Cn1c2ccccc2c(=O)c2cc(Cl)ccc21)Nc1cc(Cl)cc(Cl)c1	/	/
72	CC(=O)N(c1ccc(C)cc1)C1(C(=O)NC2CCCC2)CCCCC1	93	90

no.	GIV Gai3 FP	HCMV UL50-53 inh
61	107	/
62	/	-14
63	101	-16
64	104	/
65	/	-20
66	111	-3
67	/	-31
68	/	-7
69	108	/
70	103	-37
71	103	-14
72	94	-6

Later entries
no.	canonical_smiles	Sa growth inh second temp	Sa growth inh
73	Cc1nc2cc(Cl)ccc2c(=O)n1CC1CCCO1 (configuration not stated)	72	111
74	C/C(=N\O)C12CC3(C)CC(C)(CC(C)(C3)C1)C2	91	93
75	CN1CCN(C(CNC(=O)C(C)(C)C)c2ccc(N(C)C)cc2)CC1 (configuration not stated)	/	/
76	CN(Cc1ccc(F)cc1)Cc1cc(=O)n2cc(Cl)ccc2n1	/	/
77	Cc1ccc(S(=O)(=O)c2ccccc2)cc1S(=O)(=O)N1CCCCC1	81	108
78	CN(Cc1ccccc1)CN1C(=O)NC(C)(c2ccccc2)C1=O (configuration not stated)	89	93
79	Cc1nnc(N/N=C/CCc2ccccc2)[nH]c1=O	78	90
80	COc1ccc(C2CC(=O)C3=C(C2)Nc2ccccc2NC3c2ccc(F)c(Br)c2)cc1 (configuration not stated)	/	/
81	CC(=O)NC(=O)c1cc2ccc(OC(C)=O)cc2oc1=Nc1ccc(C(C)=O)cc1	/	/
82	CCOC(=O)c1[nH]c(C)c(S(=O)(=O)NCc2cccnc2)c1C	/	/
83	Cc1oc2ccc(OCC(=O)c3ccc(Br)cc3)cc2c1C(=O)OC(C)C	/	/
84	Cc1cccn2cc(CNC(=O)C3CCCCC3)nc12	84	98
85	Cc1ccc(C(=O)Nc2nc(-c3ccc4c(c3)N(C)C(=O)CO4)cs2)cc1	/	/
86	COc1ccc(/C=C2/SC(=O)N(CC(=O)Nc3ccc(C)c(C)c3)C2=O)cc1OC	/	/
87	COCCn1c(-c2ccccc2)nc(=S)c2c1CC(C)(C)OC2	87	112

no.	GIV Gai3 FP	HCMV UL50-53 inh
73	110	-8
74	106	-14
75	100	-29
76	106	-65
77	99	-3
78	/	-25
79	99	-14
80	112	-24
81	178	-37
82	110	-43
83	130	-26
84	103	-25
85	113	-15
86	103	-16
87	104	/
